Screening results deposited in PubChem by National Center for Advancing Translational Sciences (NCATS).
ClpP mod = qHTS Assay for Activators of ClpP | purified B. subtilis ClpP, FRET peptide cleavage, 20 min | Potency, µM (series often up to 57.5 µM), without a hit: top-dose activity change, negative = active | 340,000 tested, 1.9% active | AID 651965, 2013; active = well fitted falling curve with a large enough effect; inconclusive = small, poorly fitted or top-dose-only effect; inactive = no such curve, though single readings can be large or run the other way; further: potency means the concentration at half of the fitted maximal effect; the source files actives as falling curves though it sought activators and does not explain the sign; nearly all actives have a fitted effect of over 65% in size; many hits overshoot -100%
Target sequence (P80244 whole entry, looked up): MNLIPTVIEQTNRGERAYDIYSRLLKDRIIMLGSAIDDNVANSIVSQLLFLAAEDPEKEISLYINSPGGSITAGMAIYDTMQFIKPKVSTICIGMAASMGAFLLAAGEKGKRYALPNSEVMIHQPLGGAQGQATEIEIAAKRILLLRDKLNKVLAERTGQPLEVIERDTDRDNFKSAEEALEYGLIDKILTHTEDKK
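Buffer: 100 mM Tris/HCl pH8, 100 mM KCl, 0.05% low protease BSA, 2.5% glycerol, 0.01% Tween-20. ClpP 10 microg/mL final; 20 min RT; delta FRET normalized to ADEP and DMSO controls.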
gsp agonist = agonists of gsp mutant (McCune-Albright syndrome). gsp mutant cells, cAMP HTRF, 30 min; control for the full effect not named in the record. Potency, µM (series often up to 76.9 µM), without a hit: top-dose activation (cAMP increase), most hits filed as activators. 340,000 tested, 0.13% active. AID 624287; active = well fitted activation curve with a large enough effect; inconclusive = small, poorly fitted or top-dose-only effect, or another doubt; inactive = no such curve, though single readings can be large or run the other way; cell line not stated here;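 further: phosphodiesterase inhibitor Ro 20-1724 added with compounds to block cAMP breakdown; potency means the concentration at half of the fitted maximal effect; nearly all actives have a fitted effect of over 60% in size; about a fifth of the inactives were tested at one dose only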
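Cells stably selected in G418 were plated at 2000/well, grown 16-24 hr, then given compounds in DMSO with the PDE inhibitor […] (300 uM solution added) for 30 min at 37C; cAMP was read by HTRF.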
TRPV1 potentiator = human TRPV1 potentiation. Q8NER1. potentiation, % at 8.33 µM. 320,000 tested, 0.02% active. TRPV1-expressing cells, Fluo-8 calcium influx, capsaicin EC20 potentiation; host cell line not named in the record; control for the full effect not named in the record; active means potentiation above 80%; inconclusive means 30% to 80%; inactive means below 30%; further: 0% is about no effect
Target sequence (Q8NER1 whole entry, looked up): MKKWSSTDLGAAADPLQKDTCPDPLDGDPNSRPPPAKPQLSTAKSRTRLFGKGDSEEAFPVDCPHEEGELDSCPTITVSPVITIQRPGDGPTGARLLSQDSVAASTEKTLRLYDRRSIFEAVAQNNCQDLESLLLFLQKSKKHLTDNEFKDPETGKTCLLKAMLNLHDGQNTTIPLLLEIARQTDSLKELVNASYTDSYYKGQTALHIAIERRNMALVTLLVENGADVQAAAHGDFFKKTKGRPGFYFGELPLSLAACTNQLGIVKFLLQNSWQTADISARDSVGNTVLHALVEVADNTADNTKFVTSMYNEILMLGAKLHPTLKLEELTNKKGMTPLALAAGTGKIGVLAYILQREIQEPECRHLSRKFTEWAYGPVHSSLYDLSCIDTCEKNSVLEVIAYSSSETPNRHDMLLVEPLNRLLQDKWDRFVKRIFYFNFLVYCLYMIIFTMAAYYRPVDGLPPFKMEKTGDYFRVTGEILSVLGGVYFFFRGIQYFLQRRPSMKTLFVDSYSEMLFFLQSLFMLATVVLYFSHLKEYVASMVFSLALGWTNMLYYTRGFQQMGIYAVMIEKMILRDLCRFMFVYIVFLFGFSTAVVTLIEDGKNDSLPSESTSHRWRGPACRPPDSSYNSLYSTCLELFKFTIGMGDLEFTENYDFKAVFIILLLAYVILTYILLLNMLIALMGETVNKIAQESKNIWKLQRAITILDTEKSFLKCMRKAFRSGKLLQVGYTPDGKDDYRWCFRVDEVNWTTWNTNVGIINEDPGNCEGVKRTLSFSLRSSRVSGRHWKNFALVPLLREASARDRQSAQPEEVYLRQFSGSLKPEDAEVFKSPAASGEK
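Fluo-8 calcium influx in TRPV1-expressing cells, kinetic read (ex 480/em 520 nm). Compound added and read 3 min for agonist activity, followed by capsaicin at EC20 final and 2 min further read for enhancement.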
gsp antagonist = antagonists of gsp mutant (McCune-Albright syndrome); 340,000 tested, 0.4% active; gsp-mutant cells, cAMP HTRF, 30 min; control for the full effect not named in the record; Potency, µM (top dose mostly 76.9 µM), without a hit: at the top dose activity change, negative = inhibition, most hits filed as inhibitors; active = falling curve of any shape with a large fitted effect; inconclusive = falling curve, mostly with a smaller effect; inactive = flat or rising curve; cell line not stated here;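 further: intracellular cAMP measured with PDE inhibitor Ro 20-1724 present during compound exposure; potency means the concentration at half of the fitted maximal effect; on the % scale 0 is the no-effect control and ±100 the full control effect; nearly all actives have a fitted effect of over 65% in size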
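HTRF cAMP measurement after 30 min RT detection following 30 min, 37C compound treatment alongside […] (added as 300 uM solution) in G418-selected cells seeded at 2000/well and grown 16–24 h.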
D2 potentiator = positive allosteric modulators of human D2 dopamine receptor; potentiation, % (concentration not given with the values); 360,000 tested, 0.23% active; DiscoveRx D2 beta-arrestin cells, luminescence, 90 min; 100% = 57 uM dopamine signal; AID 624464; P14416; active = potentiation of 50% or more; inconclusive = 30% to 50%; inactive = 30% or less;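 further: compound concentration not given in the record; tested on top of an EC20 dose of dopamine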
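PathHunter beta-arrestin assay in DiscoveRx D2 cells. Compounds were added with an EC20 of dopamine (50 nM final) for 90 min at 37 deg C. Luminescence was read 1 h after detection reagent, with 57 uM dopamine as the EC100 control.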
Sfp PPTase inh = blocks B. subtilis Sfp PPTase activity; 310,000 tested, 3.5% active; Q9F4F7; Potency, µM, for inactives: max response, negative = inhibition, usual class: inhibitors; Biochemical Sfp PPTase activity, qHTS; active means well fitted inhibition curve with a large enough effect; inconclusive means small, poorly fitted or top-dose-only effect, or another doubt; inactive means no such curve, though single readings can be large or run the other way;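 further: the enzyme is Sfp with the accession as filed and its product quenches rhodamine fluorescence; potency means the concentration at half of the fitted maximal effect; 0% = enzyme reaction without inhibitor and -100% = no enzyme wells; top concentration of the series not given in the record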
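Buffer: 50 mM Hepes-Na pH 7.6, 10 mM MgCl2, 0.01% Nonidet P-40, 0.01% BSA. Enzyme 15 nM, pre-exposed to compound 15 min; substrates then added and fluorescence change tracked over 30 min.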
Menin MLL FP FL = menin-MLL binding inhibition, fluorescein peptide; Fluorescence polarization, fluorescein-MLL peptide displacement from menin; FP activity change, % at 61.4 µM; 290,000 tested, under 10 active; inconclusive = falling polarisation curve, or a change in total fluorescence; inactive = total fluorescence flat and polarisation flat or rising; no compound was filed as active; the % refers to the polarisation; negative = inhibition;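 further: % of control where 0% means no effect; inhibitors lower the polarisation; unlabelled MLL peptide was the positive control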
An asterisk follows results filed as active; ? = inconclusive; / = no result given; [ ] = remark or other dose.

SMILES | ClpP mod | gsp agonist | TRPV1 potentiator | gsp antagonist | D2 potentiator | Sfp PPTase inh | Menin MLL FP FL
FC(F)(F)c1cc(-c2ccccc2)nc(NC2CCCC2)n1 | 32µM* | 2% | -20 | -6% | -5 | 8% | 3.1
COc1ccc(N2CC(O)=C(c3n(C)c4ccccc4[n+]3C)C2=N)cc1 | 2.5% | 10% | 1 | 12% | -29 | 1% | 4.9
C=CCn1c(SCC(=O)NCCc2ccccc2)nnc1C(C)NC(=O)c1cccs1 (stereo not given) | -1.8% | -18% | 23 | -11% | -5 | 13% | -3.4
Cc1cccc(C(C(=O)NC2CCCCC2)N(Cc2cccnc2)C(=O)c2csnn2)c1 (stereo not given) | / | -1% | 9 | -9% | -9 | 12% | -1.2
CCCNC(=O)N1C2=NC(C(=O)OC)=C(C(=O)OC)[C@@H]3N(Cc4ccccc4)c4ccccc4[C@]23C[C@H]1CO | 3.5% | / | / | 0% | 11 | / | /
COc1ccc(C(C#N)c2cnccn2)cc1OC (stereo not given) | 0.4% | -2% | ? | 9% | -12 | / | /
Brc1ccc(-c2nnc3sc(CN4CCC5(CC4)OCCO5)cn23)cc1 | -1.9% | 23% | -2 | 2% | -6 | 15% | 1.6
C/C(=N\NC(=O)c1ccn(C)n1)c1ccc(NC(=O)C2CCC2)cc1 | -2.3% | 7% | 15 | -22% | -9 | 15% | /
OC1CN=C2CCCc3c2n(c2ccc(Cl)cc32)C1 (stereo not given) | 16% | 5% | 0 | 0% | -26 | -10% | ?
NCCOc1ccccc1-c1ccccc1 | -0.6% | -7% | 17 | 12%[15.4 µM] | -44 | 8% | -1.1
CCOC(=O)N1CCN(S(=O)(=O)c2ccc(F)c(C(=O)Nc3ccc(C)c(Cl)c3)c2)CC1 | -4.6% | -9%[15.4 µM] | 5 | -10% | 19 | 10% | 5.0
C[C@H](O)CC1=C[C@H](O)[C@@H](C)OC1=O | -4.9% | / | 27 | 11% | -1 | -16% | 1.1
COc1ccc(CCn2c(-c3cccc([N+](=O)[O-])c3)nc3nc4ccccc4nc32)cc1OC | -1.7% | 3% | 0 | -4% | -4 | 4% | 0.9
O=[N+]([O-])c1ccc(Cl)cc1CN1CCCCCC1 | / | 21% | -1 | 0% | -2 | 2% | 0.9
COc1ccc(S(=O)(=O)NNC(=O)Nc2ccccc2OC)c(OC)c1 | -2.3% | 9% | 0 | -3% | 0 | ? | -1.0
CCn1cc(/C=N\NC(=O)c2cc(-c3ccccc3OC)nc3ccccc23)c(C)n1 | 2.4% | -7% | -16 | 19% | -10 | -6% | 2.3
COc1ccc(-n2cc(CN[C@H]3CCCCNC3=O)c(-c3cccc(F)c3)n2)cc1 | 3.4% | -17% | -14 | -3% | -9 | 13% | 2.6
O=C(CCCOc1ccccc1)Nc1ccc(S(=O)(=O)Nc2ccccn2)cc1 | / | ? | 2 | -4% | 0 | -3% | 3.0
CCCC(c1nnnn1Cc1ccc(OC)cc1)N1CCC(C(N)=O)CC1 (stereo not given) | -1.5% | 3% | -9 | -6% | -11 | 18% | 0.7
CCOC(=O)C(=Nc1ccccc1)NO | -2.4% | 3% | -7 | 13% | -27 | -5% | 3.6
COc1ccc(-c2nnc3cccc(Cl)n23)c(OC)c1 | -0.7% | 17%[15.4 µM] | 2 | -9% | -5 | 12% | -0.1
Fc1ccccc1NC(=S)NCCc1ccc(Cl)cc1 | -1.0% | -5% | -6 | -11% | 8 | 6% | /
Cc1ccc(C(=O)OCN2C(=O)c3ccccc3C2=O)c(O)c1 | 61% | -8% | -10 | 18% | -10 | 18% | -4.9
O=C1C(NS(=O)(=O)c2cccs2)=C(N2CCN(Cc3ccccc3)CC2)C(=O)c2ccccc21 | 1.1% | -25% | 3 | ? | -18 | 6% | -0.4
COc1ccccc1NS(=O)(=O)c1ccc(C)c(NC(=O)c2ccc(S(=O)(=O)N3CCCCCC3)cc2)c1 | 1.1% | -7%[15.4 µM] | -11 | -21% | -3 | 12% | 5.4

A draw from above in order of molecular weight, lowest first:
SMILES | ClpP mod | gsp agonist | TRPV1 potentiator | gsp antagonist | D2 potentiator | Sfp PPTase inh | Menin MLL FP FL
COc1ccc(C(C#N)c2cnccn2)cc1OC (stereo not given) | 0.4% | -2% | ? | 9% | -12 | / | /
Fc1ccccc1NC(=S)NCCc1ccc(Cl)cc1 | -1.0% | -5% | -6 | -11% | 8 | 6% | /
CCOC(=O)N1CCN(S(=O)(=O)c2ccc(F)c(C(=O)Nc3ccc(C)c(Cl)c3)c2)CC1 | -4.6% | -9%[15.4 µM] | 5 | -10% | 19 | 10% | 5.0
CCCNC(=O)N1C2=NC(C(=O)OC)=C(C(=O)OC)[C@@H]3N(Cc4ccccc4)c4ccccc4[C@]23C[C@H]1CO | 3.5% | / | / | 0% | 11 | / | /

Continuation:
SMILES | ClpP mod | gsp agonist | TRPV1 potentiator | gsp antagonist | D2 potentiator | Sfp PPTase inh | Menin MLL FP FL
S=c1[nH]nc(-c2cc(-c3ccccc3)n[nH]2)n1/N=C/C=C/c1ccco1 | / | -6%[15.4 µM] | / | -19% | -11 | 16µM* | 17
Cc1ccc(S(=O)(=O)N(C)C[C@H]2Oc3cc(C#CC4CCCC4)ccc3S(=O)(=O)N([C@H](C)CO)C[C@H]2C)cc1 | -2.7% | -22% | / | / | -7 | / | /
COc1cccc(-c2cc(-c3cccnc3)nc(N)c2C#N)c1 | 4.2% | ? | 7 | -1% | -18 | 13% | 4.4
C=CCn1c(NC(=O)c2ccco2)nc2ccccc21 | -2.5% | -1% | 6 | 1% | -5 | 10% | /
CC(C)(C)c1ccc(CCC(CC(=O)O)CC(=O)O)cc1 | 0.3% | -41%[inhibitor] | -17 | -6% | -4 | 16% | -1.3
Cc1c(C)c(C)c(CO/N=C/c2cccs2)c(C)c1C | -1.0% | -1%[15.4 µM] | -5 | -13% | -21 | -13% | 5.1
CN(Cc1ccccc1)C(=O)NC1CCCCC1 | 0.5% | 10% | -19 | -2% | -4 | -7% | -0.5
COc1ccccc1C(=O)NC(=O)CSc1nc2nc(C)cc(C)n2n1 | 0.9% | 2%[15.4 µM] | -10 | 8% | 3 | / | /
Cc1ccc(/C=C/C2=NN(C)C(=O)CC2)cc1 | / | -13%[15.4 µM] | ? | / | -17 | 5% | -0.3
COc1ccc(NC(=S)NC(NC(=O)CCl)C(Cl)(Cl)Cl)c([N+](=O)[O-])c1 (stereo not given) | -0.7% | -142%[inhibitor] | -6 | -4% | 2 | 25µM* | 0.8
Cc1ccc(CNCC2CCCO2)o1 (stereo not given) | 0.7% | 4% | 1 | -3% | 0 | 1% | -0.8
CCOC(=O)c1ccc(NC(=S)N2CCSC2c2ccc(Br)cc2)cc1 (stereo not given) | -1.0% | 10% | -1 | 5% | -6 | -2% | 2.4
COc1ccc(-c2cn3c(C)c(C(=O)NC(C)C)sc3n2)cc1 | 1.1% | -1% | / | 9% | -4 | 4% | 0.3
CC(C)(C)OC(=O)NCCCCCc1nnc(SCc2ccccc2)o1 | / | 2%[15.4 µM] | -9 | -23% | -11 | 8% | -1.5
O=C(Cc1ccc(NC(=O)C2CCCN(C(=O)C3CCC3)C2)cc1)Nc1cccc(C(=O)N2CCCCC2)c1 (stereo not given) | -1.6% | / | / | 3% | -7 | / | /
COCCNC(=O)C1CCN(S(=O)(=O)N2CCC3(CC2)OCCO3)CC1 | -0.6% | 0% | -8 | 10% | 5 | 14% | -3.4
CCc1ccccc1-n1c(SCC(=O)Nc2ccc3c(c2)OCCO3)nc2[nH]ncc2c1=O | 0.9% | 1% | -30 | 10% | -11 | 25% | 1.5
CCCC(=O)N(c1ccc(OCC)cc1)C1C=CS(=O)(=O)C1 (stereo not given) | -1.5% | -60%[inhibitor] | 0 | 2% | 6 | 17% | 1.3
O=C(Cn1cnc2cc([N+](=O)[O-])ccc2c1=O)NCCc1ccc(Cl)cc1 | 0.5% | -3%[15.4 µM] | 0 | -17% | 21 | 10% | -1.2
CCc1ccc(S(=O)(=O)N2c3ccc(C)cc3C3CN(C)CCC32)cc1 (stereo not given) | -5.1% | 1% | -13 | 15% | -34 | / | /
CNS(=O)(=O)c1cc(C(=O)NCc2ccco2)ccc1Cl | -2.7% | ? | 3 | 3% | -16 | 16% | -0.5
O=C(Nc1cccc(S(=O)(=O)N2CCCC2)c1)c1cccc(OC(F)F)c1 | / | -10%[15.4 µM] | -17 | -22% | 11 | / | /
Cn1c(-[n+]2c(-c3ccccc3)cc(-c3ccccc3)cc2-c2ccccc2)nc2c([N+](=O)[O-])cccc21 | -3.9% | -6%[15.4 µM] | 10 | -10% | -18 | -13% | 2.6
COc1ccc(CC(=O)NC(C)c2ccc(S(N)(=O)=O)cc2)cc1S(=O)(=O)N1CCOCC1 (stereo not given) | -0.7% | -5% | 24 | 9% | 22 | 5% | /
CCOC(=O)c1cccnc1NC(=O)c1ccncc1 | / | 2%[15.4 µM] | -11 | -10% | 20 | 6% | 6.7
SMILES | ClpP mod | gsp agonist | TRPV1 potentiator | gsp antagonist | D2 potentiator | Sfp PPTase inh | Menin MLL FP FL
CCN(CC)CC(=O)N1CCCC(N2CCN(c3cccc(C(F)(F)F)c3)CC2)C1 (stereo not given) | -0.1% | -9% | -16 | -9% | -3 | 9% | -2.8
CCC(=O)c1cc(F)ccc1OCC(=O)Nc1ccc2c(c1)OCCO2 | 1.1% | -25% | 12 | -26% | -2 | / | /
Cc1cc(C)c(NC(=O)CSc2ccc(-c3cccnc3)nn2)c(C)c1 | / | 13% | ? | -4% | 0 | 56µM* | 5.9
COc1ccc(CNC(=O)CCSCc2ccccc2Cl)c(OC)c1 | -6.2% | 25% | -8 | -5% | -11 | 6% | 1.2
O=C(c1ccccc1)N(Cc1ccc(F)cc1)C1CCS(=O)(=O)C1 (stereo not given) | -0.8% | -24% | 4 | 0% | 1 | 13% | 1.5
CCCc1cc(=O)n2[nH]c(-c3ccc(C)cc3)cc2n1 | 14µM* | 3% | -6 | -3% | -13 | 13% | 0.9
CCOCCn1c(CN2CCN(c3ccc(F)cc3)CC2)nc2c1c(=O)n(C)c(=O)n2C | 0.4% | -5% | -1 | 5% | -15 | -6% | -0.1
CCN(CC(=O)NCc1ccc(F)cc1)Cc1nc2ccccc2c(=O)[nH]1 | 1.4% | -15% | -1 | 1% | -15 | -3% | -0.6
O=C(COc1ccccc1)NC(=S)Nc1cccc(NC(=O)c2ccccc2Cl)c1 | 1.6% | 0% | 9 | 0% | -16 | 16% | 2.5
